Mtb MbtI inh = MbtI salicylate synthase inhibitors, primary screen, biochemical, fluorescence intensity; purified MbtI enzyme, fluorescence intensity read-out; inhibition, %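 (about 17 µg/mL by stock and volumes)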; 0.89% of 100,000 active; AID 493033, 2011;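 active means above 50% in both replicates, above 80% if mildly self-fluorescent; inactive means the rest, strongly fluorescent compounds included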;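 further: 0% = mean of negative and 100% = mean of positive controls; one replicate is shown; some compounds called inactive have numbers as strong as hits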
Target sequence (P9WFX0 whole entry, looked up): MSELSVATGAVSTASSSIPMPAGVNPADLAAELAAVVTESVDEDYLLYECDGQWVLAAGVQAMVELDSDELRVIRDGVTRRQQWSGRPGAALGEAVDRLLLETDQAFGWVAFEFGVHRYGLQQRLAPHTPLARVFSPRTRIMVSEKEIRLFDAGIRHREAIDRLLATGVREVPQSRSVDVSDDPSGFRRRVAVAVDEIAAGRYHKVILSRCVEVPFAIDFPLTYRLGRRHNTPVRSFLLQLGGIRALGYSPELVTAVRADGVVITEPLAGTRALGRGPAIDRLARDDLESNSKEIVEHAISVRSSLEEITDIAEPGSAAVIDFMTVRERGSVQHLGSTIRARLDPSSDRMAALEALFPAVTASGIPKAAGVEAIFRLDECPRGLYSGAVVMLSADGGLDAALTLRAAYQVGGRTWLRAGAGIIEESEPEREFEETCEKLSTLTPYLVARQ
PV pol inh = poliovirus RdRp elongation inhibitors, primary screen, biochemical, fluorescence polarization, total intensity; Genome polyprotein (Poliovirus type 1 (strain Mahoney)), P03300; poliovirus polymerase elongation; hits give low values; % elongation, % (compound at 16.7 µg/mL); 0.66% of 150,000 active; in the data active means % elongation below about 90%; further: some results filed as inactive read as strong as hits
MenB inh = M. tuberculosis MenB inhibitors, primary screen, biochemical, absorbance. 1,4-dihydroxy-2-naphthoyl-CoA synthase (Mycobacterium tuberculosis (strain ATCC 25618 / …. MenB enzyme assay, absorbance read-out; some hits fall short of the stated cut. inhibition, %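 (about 12 µg/mL by stock and volumes)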. 0.43% of 100,000 active. AID 540299, 2011;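 active means mean of two replicates above 30%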;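 further: 0% = no compound and 100% = wells with inactive enzyme; the first replicate is given; strong numbers were not always called active; inactives centre near -10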
Target sequence (P9WNP5 whole entry, looked up): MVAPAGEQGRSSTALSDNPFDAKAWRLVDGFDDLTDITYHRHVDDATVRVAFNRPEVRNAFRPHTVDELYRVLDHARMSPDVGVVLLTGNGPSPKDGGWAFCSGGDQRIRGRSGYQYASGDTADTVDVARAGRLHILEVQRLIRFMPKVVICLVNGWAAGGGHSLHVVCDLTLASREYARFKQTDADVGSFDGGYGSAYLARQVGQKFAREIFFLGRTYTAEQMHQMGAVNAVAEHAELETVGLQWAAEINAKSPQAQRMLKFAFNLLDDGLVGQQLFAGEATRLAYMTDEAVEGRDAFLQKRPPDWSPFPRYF
PV pol inh intensity = recorded beside PV pol inh, whose call it bears; % elongation; measured here: total intensity read-out; formula for this scale not given here;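 total fluorescence in place of polarization; lower means less elongation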
Active calls of the source: *; i = inactive; nt = no result given.

SMILES	Mtb MbtI inh	PV pol inh	PV pol inh intensity	MenB inh
CCSc1nnc(CNc2ccc(F)cc2)n1CC1CCCO1 (configuration not stated)	10	102	101	-3
CCCc1nc2ccc(NC(C)=O)cc2[nH]1	-6	102	103	-3
CO[C@H]1O[C@H](CO)C(=O)C(O)=C1N	nt	102	96	25
O=C(COc1ccccc1)NC(C(=O)O)C12CC3CC(CC(C3)C1)C2 (configuration not stated)	4	nt	nt	-10
Cc1c(C(=O)NC(C)C)oc2ccc3c(c12)C(O)CC(C)(C)O3 (configuration not stated)	123	107	103	-13
Cc1cccc(/N=C/c2c(O)n(Cc3ccc4c(c3)OCO4)c(=O)c3ccccc23)n1	-6	104	109	11
CC1(C)Cc2nnc3c4c(nnc(c24)C1)CC(C)(C)C3	5	100	100	-8
CC(=S)Nc1ccc2c(c1)OCO2	73*	72*	84*	-15
CCC(CC)NC(=O)COc1ccc(-c2nnco2)cc1	-14	98	103	-19
OC1(C2(O)CC(c3ccccc3)NO2)CCCCC1 (configuration not stated)	nt	103	112	7
CCN(CC)C(=O)/C=C\c1cn(-c2ccccc2)nc1-c1ccc(OC)cc1	-7	100	99	nt
COc1ccc2c(CC(=O)OCC(=O)Nc3cc(C(F)(F)F)ccc3N3CCOCC3)coc2c1	-5	104	107	-26
CC(C)c1ccc(C(C)NC(=O)C2=COCCO2)cc1 (configuration not stated)	-6	98	101	-1
O=C1Nc2ccccc2N(O)N1c1ccc(O)cc1	-8	106	101	-13
CC(C)CNC(=O)C1CCCCC1C(=O)O (configuration not stated)	nt	106	106	-5
CCn1c(C)nnc1SCc1cccc(Cl)c1	-20	104	103	-5
Cc1cccc(NC(=O)CNC(=O)Cc2ccc3c(c2)OCCO3)c1C	-5	137	157	-30
COC(=O)C1=CN(Cc2ccc3c(c2)OCO3)C=C(C(=O)OC)C1c1ccc2c(c1)OCO2	i	101	103	-12
O=C(NC1CCCCC1)c1ccccc1F	-3	99	101	10
CS(=O)(=O)Nc1ccccc1C(N)=O	99	99	107	-4
COc1cc(C(=O)CSc2nccc(C)n2)cc(OC)c1OC	1	102	108	-1
Cc1nc2ccccc2c(=O)n1-c1ccc(C(=O)NC(C)c2ccccn2)cc1 (configuration not stated)	0	34*	42*	-35
CCc1ccc(-c2cc3c(=O)n(CC(=O)NC4CCCC(C)C4C)nc(C)n3n2)cc1 (configuration not stated)	-4	103	104	4
Cc1ccc(C23CCC(=O)N2C(C(=O)NC2CC2)CS3)cc1 (configuration not stated)	-6	nt	nt	3
CC(C)COc1ccc(C(=O)OCCN2CCCCC2)cc1	14	104	107	-2
CC(c1ccccc1)C1Nc2ccccc2C(=O)N1c1ccccc1 (configuration not stated)	nt	104	103	-1
CC(C)NC(=O)c1ccc(OC2CSC2)cc1	-7	103	104	-45
CC(C)c1cc(C(=O)NCc2ccc(Cl)cc2)no1	-10	100	102	-12
COc1ccc(CN(C)CCc2ccccn2)c(OC)c1OC	4	101	96	-9
CSc1nn(Cc2ccccc2)c(N)c1S(=O)(=O)c1ccccc1	-6	101	104	-17
CC(C)[C@@H](C(=O)O)N1Cc2ccccc2C1=O	-8	102	103	8
CCC1Oc2ccc(C)cc2N(CC(=O)NCC2COc3ccccc3O2)C1=O (configuration not stated)	2	103	107	-30
COc1ccc2oc(=O)cc(C)c2c1	nt	98	105	-27
CC1CCN(c2nc3ccccn3c(=O)c2/C=N/NC(=O)c2ccccc2)CC1	-2	103	102	9
FC(F)(F)C12CC(c3ccccc3)=NCCN1CCN2 (configuration not stated)	14	99	100	-29
O=C(CSc1nc2nn(-c3ccccc3)c(=O)c-2c2n1CCCCC2)Nc1ccc2c(c1)OCO2	9	102	96	6
O=c1[nH]c2c(n1-c1ccccc1)C=Nc1cc3ccccc3cc1N2	48	100	106	-14
CC(C)c1cccc(C(C)C)c1NC(=O)Cc1cccs1	nt	102	112	0
O=C(CN1CC2CC(C1)c1cccc(=O)n1C2)c1ccc2cc[nH]c2c1 (configuration not stated)	120	98	102	-16
CCn1c(C)c(C2=CCN(S(=O)(=O)c3ccc(C)cc3)CC2)c2ccccc21	5	101	102	7
CCc1cc2c(s1)NC(=O)CN=C2c1cccs1	18	100	101	2
C1=CCC2NC(C1)Cc1ccccc12 (configuration not stated)	-1	103	104	29*
O=C(CN1CC(=O)Oc2ccccc21)OCC(=O)c1ccc(F)cc1	-4	103	108	-55
COc1ccc(-c2nc3ccccc3c(=O)[nH]2)cc1OC	28	100	104	-9
O=C(O)CCCn1cc(NC(=O)Cc2ccccc2)cn1	-24	100	102	-6
CCN(CC)c1nc(-c2ccc(F)cc2)cc(C(F)(F)F)n1	25	98	104	6
Cc1ccc(NC(=O)CC2SC(=O)N(CN3CCCCC3)C2=O)cc1 (configuration not stated)	3	100	102	4
Cc1[nH]c2ccc(-c3nnc(SCC(=O)N4c5ccccc5CCc5ccccc54)o3)cc2c1C	47	103	100	-186
CCOc1ccccc1N(C)S(=O)(=O)c1c(/C=C/N(C)C)noc1C	29	99	96	-14
CCC(C)Cn1c(C(C)C)nc2ccccc21 (configuration not stated)	-7	99	101	-22
N#CCOC(=O)c1c2c(nc3ccccc13)CCCC2	26	102	113	-17
COc1ccc(NC(=O)CC2C(=O)N(c3ccccc3)C(=O)N2C(C)C)cc1 (configuration not stated)	9	99	102	-6
CCn1nnc2cc(C(=O)N(C3=NC(C)CS3)c3ccc(Cl)cc3)ccc21 (configuration not stated)	-2	105	107	-24
OC(Cc1ccccc1)(c1ccccc1)c1ccccc1NC(=S)NC1CC2C=CC1C2 (configuration not stated)	-7	104	110	-16
CN(C(=O)Cn1nnc2ccccc2c1=O)C1CCCCC1	3	101	102	-89
CCOC(=O)Cn1nnnc1C(CC)N(Cc1cccnc1)Cc1cc2cc(C)ccc2[nH]c1=O (configuration not stated)	-18	104	102	-22
CC(Sc1nnnn1C)c1ccccc1Cl (configuration not stated)	-4	101	96	-6
CS(=O)(=O)N1N=C(c2cccs2)CC1c1ccccc1F (configuration not stated)	6	104	95	-18
CCNC(=O)C1=C(C)C(=O)OC12CCN(S(=O)(=O)CC)CC2	-23	102	102	-20
CC(=O)N(Cc1ccc(F)cc1)Cc1nc2ccccc2c(=O)[nH]1	5	102	99	-48

As a working copy, part of the list above:
SMILES	Mtb MbtI inh	PV pol inh	PV pol inh intensity	MenB inh
CN(C(=O)Cn1nnc2ccccc2c1=O)C1CCCCC1	3	101	102	-89
CCOC(=O)Cn1nnnc1C(CC)N(Cc1cccnc1)Cc1cc2cc(C)ccc2[nH]c1=O (configuration not stated)	-18	104	102	-22
CC(Sc1nnnn1C)c1ccccc1Cl (configuration not stated)	-4	101	96	-6
CS(=O)(=O)N1N=C(c2cccs2)CC1c1ccccc1F (configuration not stated)	6	104	95	-18
CCNC(=O)C1=C(C)C(=O)OC12CCN(S(=O)(=O)CC)CC2	-23	102	102	-20
CC(=O)N(Cc1ccc(F)cc1)Cc1nc2ccccc2c(=O)[nH]1	5	102	99	-48

Other records
SMILES	Mtb MbtI inh	PV pol inh	PV pol inh intensity	MenB inh
CC(Sc1nc2ccccc2n1C)C(=O)N(C)c1ccccc1 (configuration not stated)	4	107	110	-1
CCC(Sc1nnc2sc3ccccc3n12)C(=O)O (configuration not stated)	15	101	102	-12
O=C(CCNc1ccc(Oc2ccccc2)cc1)c1ccco1	-13	102	104	-20
CC1CCCCC12NC(=O)N(CN1CCN(S(=O)(=O)c3ccc4c(c3)OCCCO4)CC1)C2=O (configuration not stated)	-1	97	104	-23
Cc1nc(SCCCSc2n[nH]c(C)n2)n[nH]1	-7	103	104	0
CCOC(=O)c1cc(-c2ccc(C#N)cc2)nn1-c1ccc(S(N)(=O)=O)cc1	0	105	102	-6
C=CCN(C(=O)C1CCCC1)c1nc2c(s1)CCCC2	-5	101	99	-17
O=c1[nH]ncn2c1c(-n1cccc1)c1c3c(sc12)CCCC3	0	102	104	3
CCOc1ccc(OCC)c(C2C(Cc3ccccc3)N3c4ccccc4C=CC3C2(C#N)C#N)c1 (configuration not stated)	nt	130	174	-48
CCOc1ncccc1C(=O)N1CCSC1=NCc1ccccc1	6	nt	nt	7
CCSc1nc(-c2ccc(Cl)cc2)c(C#N)c(=O)n1CC	nt	103	107	-16
COc1ccc(Nc2nc(N3CCN(CCO)CC3)nc3c2cnn3C)cc1Cl	-18	103	104	21
CCOC(=O)C1=C(C)NC(C)=C(C(=O)OCC)C1C(=O)OCC(=O)N1CCCc2ccccc21	-13	103	111	-8
CCOC(=O)Nc1ccc(N2C(=O)C3C4C=CC(C4)C3C2=O)cc1 (configuration not stated)	1	101	102	12
O=C(CO/N=C/c1cccs1)N1CCN(c2ccccc2)CC1	9	100	105	-6
O=C(CC1CCCC1)Nc1ccc(S(=O)(=O)C(F)F)cc1	-10	109	109	-3
CCCC1=NN(c2nc3ccccc3s2)C(=O)/C1=C/N(C)C	8	99	105	-18
CCc1ccc(NC(=O)c2ccc3c(Cl)c4c(nc3c2)CCC4)cc1	-12	102	109	-3
CCC(C(=O)NC1CCCC1)N(C(=O)Cn1nnc(-c2cccs2)n1)c1cnc2ccccc2c1 (configuration not stated)	-8	101	103	-10
COc1ccccc1NC(=S)N(C)CCO	2	103	106	-3
c1ccc2c(c1)Nc1nc3ccccc3nc1N2	-4	99	105	5
O=C(Nc1cccc2nsnc12)c1ccc(-c2cccc(Cl)c2)o1	77	105	148	0
CCOC(=O)c1oc2ccccc2c1CO	-7	105	109	-96
COC(=O)c1ccc(NC(=O)C2C3CCC(C3)C2C(=O)O)cc1 (configuration not stated)	-6	103	95	-4
N#Cc1ccccc1CN1C(=O)c2cccc3cccc1c23	10	102	108	-24
Cc1ccc(Sc2c(-c3ccccc3)nc3ncccn23)cc1	nt	107	113	-35
CSc1ccc(-c2nc(CSCC(=O)NC3CC3)c(C)o2)cc1	48	99	103	2
CCNC(=O)c1c(-c2ccccc2)noc1C	-2	105	104	-6
Cc1ccc(NCc2ccc(Cl)nc2)c(NCc2ccc(Cl)nc2)c1	-15	99	96	-23
COC(=O)c1ccccc1N/C=C(\C#N)c1nc2ccccc2[nH]1	16	102	102	-144
O=C(O)CNC(=O)c1cc(-c2ccc(Cl)cc2)nc2ccccc12	22	101	100	nt
N#C/C(=C(/O)CCN1C(=O)c2ccccc2C1=O)c1nc2ccccc2[nH]1	-8	105	109	-1

Fetched by compound from the entries so far, four records:
SMILES	Mtb MbtI inh	PV pol inh	PV pol inh intensity	MenB inh
CSc1ccc(-c2nc(CSCC(=O)NC3CC3)c(C)o2)cc1	48	99	103	2
N#C/C(=C(/O)CCN1C(=O)c2ccccc2C1=O)c1nc2ccccc2[nH]1	-8	105	109	-1
CCCC1=NN(c2nc3ccccc3s2)C(=O)/C1=C/N(C)C	8	99	105	-18
Cc1ccc(Sc2c(-c3ccccc3)nc3ncccn23)cc1	nt	107	113	-35
